Menin-MLL FL inh: displaces fluorescein MLL peptide from human menin; 290,000 tested, under 10 active; Fluorescence polarization, fluorescein-MLL peptide displacement from menin; FP activity change, % at 61.4 µM; inconclusive = falling polarisation curve, or a change in total fluorescence; inactive = total fluorescence flat and polarisation flat or rising; no compound was filed as active; the % refers to the polarisation; negative = inhibition;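 note: % of control where 0% means no effect; inhibitors lower the polarisation; unlabelled MLL peptide was the positive control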
PINK1 expr mod: changes PINK1 expression; PINK1 immunofluorescence, high-content cytometry, 24 h; Potency, µM (series often up to 76.6 µM), for the others: at the top dose activation (PINK1 increase), most hits filed as activators; hit rate 0.2% among 410,000; active = well fitted activation curve with a large enough effect; inconclusive = small, poorly fitted or top-dose-only effect; inactive = flat fitted curve, though single readings scatter; cell line not stated here;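 note: potency is the fitted concentration of half-maximal effect; % of control where 0% means no effect; nearly all actives have a fitted effect of over 65% in size; a mitochondrial uncoupler was the plate control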
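Compound titrations (5 concentrations, 24 h) on a stable cell line; DMSO and CCCP controls. Endpoint: fixed-cell PINK1 immunofluorescence with mitochondrial, cell and nuclear markers, scanned by microplate cytometer.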
TRPML1 ag: human mucolipin-1 channel agonism; Q9GZU1; TRPML1-expressing cells, Ca2+ dye fluorescence, FDSS; host cell line not named in the record; reference of the full effect not given here; activation, % (concentration not given with the values); hit rate 0.12% among 410,000; AID 624414; in the data active = activation above about 50%; inconclusive = about 30% to 50%; inactive = below about 30%; note: 0% is about no effect; the text of the record puts the active cut at 80%
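Tetracycline-induced TRPML1-DL cells are seeded and incubated overnight before loading with a no-wash Ca2+ dye and quencher. Agonist activity is taken from the 110 s fluorescence read following compound pin-transfer on an FDSS, before EC80 54-4 challenge.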
Sfp PPTase inh: Sfp phosphopantetheinyl transferase inhibition | Q9F4F7 | Biochemical Sfp PPTase activity, qHTS | Potency, µM, inactives show max response, negative = inhibition, usual class: inhibitors | hit rate 3.5% among 310,000 | AID 1490; active = well fitted inhibition curve with a large enough effect; inconclusive = small, poorly fitted or top-dose-only effect, or another doubt; inactive = no such curve, though single readings can be large or run the other way;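 note: the enzyme is Sfp with the accession as filed and its product quenches rhodamine fluorescence; potency is the fitted concentration of half-maximal effect; 0% = enzyme reaction without inhibitor and -100% = no enzyme wells; top concentration of the series not given in the record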
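Buffer: 50 mM Hepes-Na pH 7.6, 10 mM MgCl2, 0.01% Nonidet P-40, 0.01% BSA. Enzyme 15 nM, pre-exposed to compound 15 min; substrates then added and fluorescence change tracked over 30 min.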
TRPV1 potentiator: human TRPV1 potentiation. TRPV1-expressing cells, Fluo-8 calcium influx, capsaicin EC20 potentiation; host cell line not named in the record; control for the full effect not named in the record. Q8NER1. potentiation, % at 8.33 µM. AID 540277. hit rate 0.02% among 320,000; active means potentiation above 80%; inconclusive means 30% to 80%; inactive means below 30%; note: 0% is about no effect
Target sequence (Q8NER1 whole entry, looked up): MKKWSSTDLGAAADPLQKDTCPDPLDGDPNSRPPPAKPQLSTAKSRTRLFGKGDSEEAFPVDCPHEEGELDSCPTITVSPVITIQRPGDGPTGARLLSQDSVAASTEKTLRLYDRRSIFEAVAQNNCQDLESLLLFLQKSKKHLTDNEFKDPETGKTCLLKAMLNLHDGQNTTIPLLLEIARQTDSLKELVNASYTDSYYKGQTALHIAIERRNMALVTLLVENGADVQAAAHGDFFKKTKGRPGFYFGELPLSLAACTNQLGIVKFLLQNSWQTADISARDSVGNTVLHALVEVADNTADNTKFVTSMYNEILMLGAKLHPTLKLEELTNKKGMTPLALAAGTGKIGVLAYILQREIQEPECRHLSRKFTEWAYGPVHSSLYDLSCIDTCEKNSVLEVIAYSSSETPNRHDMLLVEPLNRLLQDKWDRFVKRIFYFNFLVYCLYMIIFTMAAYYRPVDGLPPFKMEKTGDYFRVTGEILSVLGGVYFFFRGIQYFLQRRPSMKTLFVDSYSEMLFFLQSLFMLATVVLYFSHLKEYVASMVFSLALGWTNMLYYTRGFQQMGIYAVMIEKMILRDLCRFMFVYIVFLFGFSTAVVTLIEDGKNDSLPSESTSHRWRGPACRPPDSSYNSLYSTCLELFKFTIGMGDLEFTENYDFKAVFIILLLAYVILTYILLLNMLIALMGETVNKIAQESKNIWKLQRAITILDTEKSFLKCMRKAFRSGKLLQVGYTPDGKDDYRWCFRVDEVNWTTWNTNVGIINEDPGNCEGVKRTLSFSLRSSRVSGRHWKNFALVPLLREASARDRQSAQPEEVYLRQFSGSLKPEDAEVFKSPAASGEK
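Fluo-8 calcium influx in TRPV1-expressing cells, kinetic read (ex 480/em 520 nm). Compound added and read 3 min for agonist activity, followed by capsaicin at EC20 final and 2 min further read for enhancement.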
TRPML1 inh: inhibitors of human TRPML1 channel | Q9GZU1 | TRPML1-inducible cells, Ca2+ dye fluorescence, FDSS; active compounds read low; inhibition of EC80 agonist-evoked calcium signal | activity change, negative = inhibition, % (test concentration not listed) | hit rate 0.02% among 390,000; in the data active means activity change below about -50%; inconclusive means about -30% to -50%; inactive means above about -30%;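 note: stimulus is agonist 54-4 at its EC80 concentration; % is set by controls: 0 for no effect and ±100 for the full control effect; compound concentration not given in the record; the text of the record puts the active cut at -80%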
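Calcium fluorescence in TRPML1-DL cells induced overnight with Tet: a 110 s read after compound pin addition, then a 110 s antagonist read after challenge with 54-4 at 4 uM final (EC80).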
ClpP mod: qHTS Assay for Activators of ClpP; purified B. subtilis ClpP, FRET peptide cleavage, 20 min; hit rate 1.9% among 340,000; Potency, µM (doses to about 57.5 µM), for inactives: at the top dose activity change, negative = active; ATP-dependent Clp protease proteolytic subunit (Bacillus subtilis (strain 168)), P80244; active = well fitted falling curve with a large enough effect; inconclusive = small, poorly fitted or top-dose-only effect; inactive = no such curve, though single readings can be large or run the other way; note: potency is the fitted concentration of half-maximal effect; the source files actives as falling curves though it sought activators and does not explain the sign; nearly all actives have a fitted effect of over 65% in size; many hits overshoot -100%
Target sequence (P80244 whole entry, looked up): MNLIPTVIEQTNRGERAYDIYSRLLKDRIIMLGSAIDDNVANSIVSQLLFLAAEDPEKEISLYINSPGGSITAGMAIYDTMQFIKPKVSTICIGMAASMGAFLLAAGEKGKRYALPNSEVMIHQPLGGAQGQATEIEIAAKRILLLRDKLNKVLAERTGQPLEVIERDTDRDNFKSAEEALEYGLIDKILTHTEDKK
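Purified B. subtilis ClpP, 10 microg/mL final in Tris/HCl pH8 with KCl, BSA, glycerol and Tween-20, cleaved an Abz/nitrotyrosine-quenched decapeptide. Fluorescence (ex 320, em 430) was read at 0 and 20 min at room temperature. Delta was normalized to 5.8 microM ADEP and DMSO/no-enzyme controls.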
Active calls of the source: *; ? = inconclusive; . = no result given; & = joins results of further samples; [ ] = another dose, or the depositor's remark.

nr	SMILES	Menin-MLL FL inh	PINK1 expr mod	TRPML1 ag	Sfp PPTase inh	TRPV1 potentiator	TRPML1 inh	ClpP mod
1	COc1cc(/C=C\C(=O)OCn2nnc3ccccc3c2=O)cc(OC)c1OC	0.5	0.7%	0.1	6%	-5	-9	-6.6%
2	O=S(=O)(c1ccc(C2CCCCC2)cc1)N1CCOCC1	4.1	0.8%	0.9	-22%	-18	10	-1.9%
3	O=C(CSc1nc2ncc(Cl)cc2[nH]1)Nc1cccc(F)c1	0.6	?	1.3	12%	-17	-17	-2.1%
4	CCCCNC(=O)C1(C)CCCCN1C(=O)c1ccc2ccccc2n1 (centres undefined)	.	9.9%	-0.5	.	.	.	-2.5%
5	O=C(O)CC1(CC(=O)NCc2ccc(Cl)cc2)CCCCC1	-5.3	-0.5%	0.0	16%	13	14	0.9%
6	O=C(c1ccccc1)c1ccccc1C(=O)N1CCN(Cc2ccccc2F)CC1	.	-2.4%	-0.6	.	-3	-4	0.0%
7	CCCCC(=O)Nc1nn(C)c2nc3c(C)cccc3cc12	-3.4	5.0%	0.1	14%	0	27	-2.7%
8	CCCCN1C(=N)N([C@@H](CN2CCC[C@H]2CN2C(N)=NC[C@@H]2Cc2ccccc2)C(C)C)C[C@H]1Cc1ccccc1	.	-0.1%	0.0	.	.	23	-1.6%
9	O=C(Nc1ccc(C(=O)N2CCOCC2)cc1)C1CCC1	.	-1.0%	3.2	.	.	-1	0.3%
10	Cc1cc(N/N=C/c2ccccc2)nc(N2CCOCC2)n1	0.2	2.0%	0.7	0%	-13	-24	-0.5%
11	CS(=O)(=O)Nc1cccc(-c2cn3c(n2)SCC3)c1	-0.7	-1.4%	-0.5	9%	3	0	-17%
12	O=C1CSC(c2ccccc2[N+](=O)[O-])N1c1ccc(O)cc1 (centres undefined)	4.3	0.4%	1.4	50µM*	-4	-4	-5.5%
13	O=C(CCCC(=O)N(CC(=O)NC1CCCCC1)CC1CCCO1)Nc1ccccn1 (centres undefined)	0.2	0.6%	0.3	23%	-1	16	-2.6%
14	CC1=C(C(=O)N2CCCCC2)C(c2cccc(Cl)c2)n2c(nc3ccccc32)N1 (centres undefined)	.	2.4%	-0.7	.	.	-20	-18%
15	Cc1nc(NC(=O)c2ccccc2)sc1-c1csc(Nc2ccc(Cl)cc2)n1	1.8	.	.	12%	-7	.	.
16	COc1cc(C)c(Cl)cc1S(=O)(=O)NCCc1c(C)[nH]c2ccccc12	.	?	4.2	.	.	21	-0.2%
17	O=C1c2ccccc2C(O)(c2ccccc2)N1C1CC1 (centres undefined)	0.9	0.5%	1.1	15%	-17	-4	.
18	CC1CCCC(C)N1C(=O)COC(=O)COc1ccccc1C#N (centres undefined)	.	-0.9%	0.0	.	5	0	0.0%
19	O=C(N1CCN(c2ccccn2)CC1)N1c2ccccc2Sc2ccccc21	4.9	7.7%[38.3 µM]	0.6	9%	-22	13	-5.6%
20	Cc1cc(C)cc(NC(=O)C(=O)NCC(c2cccnc2)N2CCN(c3ccccc3)CC2)c1 (centres undefined)	.	0.4%	1.0	.	.	-17	-1.3%
21	Cc1ccc(/C=N\Nc2nc3ccc(Cl)cc3[nH]2)o1	-0.2	-2.0%	-1.0	3%	20	-14	-0.8%
22	COc1ccccc1CNC(=O)c1ccc2c(c1)CCN2S(=O)(=O)c1ccc(Cl)cc1	.	0.4%	0.8	.	.	2	2.0%
23	CN(C)c1ccc(NC(=S)NC(=O)/C=C/c2ccco2)cc1	-1.0	3.8%	-1.0	13%	-33	-2	.
24	COC(=O)c1cccc(NC(=O)CSc2nnc(COc3ccccc3)n2C)c1	4.3	-1.5%	0.9	-6%	1	2	1.4%
25	CC(C)NC(=O)c1ccc2c(c1)N(CC(=O)N1CCOCC1)C(=O)C(C)(C)O2	2.2	6.3%	-0.5	17%	4	3	-0.9%
26	COc1ccc(CCNC(=O)C(=O)NCc2ccccc2C)cc1OC	4.0	3.0%	-1.5	4%	18	-10	0.8%
27	CCN1C(=NCc2cccc(Cl)c2)N[C@@H](c2cccc(F)c2)C(C(=O)OC)=C1C	-4.5&-3.8	1.6%	0.0	9%&4%	-8&10	-6	-0.6%
28	CC(=O)NC(C)c1nc2ccccc2n1Cc1ccccc1F (centres undefined)	1.9	-1.5%	-0.2	11%	7	28	1.3%
29	O=c1c2c3c(sc2ncn1/N=C/c1ccncc1)CCCC3	-0.8	-0.9%	0.3	15%	-8	25	-2.1%
30	COc1ccc(-c2c(C#N)cnc(C)c2C)c(O)c1OC	.	0.5%	-0.8	.	.	-1	-1.6%
31	CC(C)N(Cc1ccccc1)C(=S)NC1CCCCC1	-0.9	1.0%	4.7	11%	-3	12	.
32	Cc1ccc(Cl)cc1NC(=O)Cn1c(=O)n(CCC(=O)NCc2ccc3c(c2)OCO3)c(=O)c2sccc21	.	1.6%	1.0	.	.	-12	-1.4%
33	CCc1ccccc1NC(=O)c1cc2nc(-c3ccc(OC)c(OC)c3)cc(C(F)(F)F)n2n1	.	-0.3%	2.4	.	.	8	?
34	Cc1ccc(C)c2sc(NC(=O)c3ccc(S(=O)(=O)N4CCCC4)cc3)nc12	.	-4.9%	0.5	.	.	2	-5.8%
35	O=C(Nc1nnc(-c2ccc3c(c2)CCCC3)o1)c1ccc(Cl)cc1Cl	0.1	-0.3%	7.5	20%	-21	10	-18%
36	O=C(CSc1nc2ncc(Cl)cc2[nH]1)NCCc1ccc(F)cc1	5.4	-0.3%	1.5	1%	-32	9	-5.2%
37	Cn1cccc1/C=N/NC(=O)c1ccn[nH]1	-0.3	-0.9%	-0.4	-10%	17	42	-1.6%
38	COc1cccc(Cc2nc3ccccc3nc2SCC(=O)N2CCc3ccccc32)c1	.	15%	2.7	.	.	-2	-1.6%
39	O=C(CN1CCc2cc3c(cc2C1)OCCCO3)Nc1ccccc1	1.4	0.5%	.	-3%	-7	.	-4.3%
40	CCSc1nnc(NC(=O)[C@H](C)N2C(=O)C3CC=CCC3C2=O)s1 (some centres undefined)	1.5	-0.5%	1.3	-1%	12	-14	0.3%
41	CCCn1c(O)c(N=Nc2ccc3ccccc3n2)c2ccccc21	?	14%	1.5	-3%	-6	49	-5.0%
42	CCN1C(=O)CC(NNC(=O)c2ccc(Cl)cc2)C1=O (centres undefined)	0.1	.	-0.3	15%	4	-4	0.2%
43	CC(=O)Nc1ccc(NC(=O)C(OC(=O)c2ccccc2)C(OC(=O)c2ccccc2)C(=O)O)cc1 (centres undefined)	-5.3	-0.9%	-0.4	-1%	18	-12	.
44	Cc1ccc(N(CC(=O)N2CCN(c3ccc(Cl)cc3)CC2)S(=O)(=O)c2c(C)noc2C)cc1	.	0.2%	0.8	.	.	-11	-7.8%
45	COCCNC(=O)C1Cc2c(-c3ccc(NC(C)=O)cc3)ccnc2O1 (centres undefined)	.	5.3%	-0.1	.	.	.	3.6%
46	C=CCOc1ccc(/C=N/NC(=O)C(C)Sc2ccccn2)cc1OC (centres undefined)	-1.4	-1.7%	2.1	14%	19	13	-1.7%
47	COC(=O)c1cc(C(=O)c2ccc(C(C)(C)C)cc2)c[nH]1	0.4	8.0%	1.2	-17%	-10	-2	-4.8%
48	CCC(=O)Nc1nnc(S(=O)(=O)N2CCCCCC2)s1	1.7	3.9%&-1.3%	-0.3&-0.1	19%	12	12&-1	-6.7%&-2.3%
49	CCOc1ccc(C(=O)NNC(=O)CNC(=O)c2ccc(C)s2)cc1OC	.	0.8%	0.0	.	5	-1	-2.5%
50	O=C(/C=C/c1ccc(Cl)cc1Cl)NC(=S)Nc1ccc(CN2CCOCC2)cc1	6.1	24%	-0.6	2%	3	-5	-1.7%
51	COc1ccc(NC(=S)NCCN2CCOCC2)c(OC)c1	.	-0.8%	-1.1	.	.	-8	-1.7%
52	O=C(COc1cccnc1[N+](=O)[O-])N1CCN(S(=O)(=O)c2ccccc2)CC1	3.8	3.2%	0.0	-21%	14	-18	4.0%
53	O=S(=O)(Nc1cccc(-c2ccc(N3CCCCC3)nn2)c1)c1cccs1	.	0.4%	0.0	.	.	15	-2.7%
54	C1CCCC(NC2=NCCO2)CCC1	-8.0	1.5%	2.5	13%	?	-12	-0.7%
55	Cc1ccc(-n2nnc(-c3cc4ccccc4n3C)n2)cc1	3.0	-0.3%	0.4	0%	-17	-4	-29%
56	CC1=NOC2(C1)/C(=N/O)CCC/C2=N\O (centres undefined)	4.0	-0.8%[38.3 µM]	-0.1	1%	4	-4	-0.7%
57	O=C(Nc1nnc(C2=COCCO2)o1)c1cccc(C(F)(F)F)c1	.	2.3%	0.0	21%	8	1	-0.7%
58	O=C(/C=C/c1cccs1)NC1CCS(=O)(=O)C1 (centres undefined)	-1.7	-0.9%	0.0	-3%	3	-4	.
59	O=C(COC(=O)c1ccccc1Br)Nc1cccnc1Cl	.	-0.1%	0.3	.	.	15	-1.5%
60	CCN1CCCC1CNC(=O)c1cc2c(C)nc3ccccc3c2o1 (centres undefined)	-3.6	0.7%	0.7	11%	-4	-13	25µM*

Laid out differently: results already given.
48. CCC(=O)Nc1nnc(S(=O)(=O)N2CCCCCC2)s1
49. CCOc1ccc(C(=O)NNC(=O)CNC(=O)c2ccc(C)s2)cc1OC

Compound | 48 | 49
Menin-MLL FL inh | 1.7 | .
PINK1 expr mod | 3.9%&-1.3% | 0.8%
TRPML1 ag | -0.3&-0.1 | 0.0
Sfp PPTase inh | 19% | .
TRPV1 potentiator | 12 | 5
TRPML1 inh | 12&-1 | -1
ClpP mod | -6.7%&-2.3% | -2.5%

Continued.
nr	SMILES	Menin-MLL FL inh	PINK1 expr mod	TRPML1 ag	Sfp PPTase inh	TRPV1 potentiator	TRPML1 inh	ClpP mod
61	O=C(CCNC(=O)c1ccc(Cl)cc1)Nc1cccc(S(=O)(=O)N2CCCCCC2)c1	.	-1.5%	4.5	.	2	15	.
62	Cc1cccc(NC(=O)c2cc(=O)c3ccccc3o2)n1	2.7	-1.9%	-0.7	25%	2	8	-1.0%
63	CCOC(=O)c1c(S(=O)(=O)N2CCN(C3CCCCC3)CC2)c(C)n(C)c1C	0.7	-1.5%	0.2	7%	8	-8	-6.1%
64	Cc1ccccc1CC1(CO)CCCN(C(=O)CCC(=O)c2ccccc2)C1 (centres undefined)	-0.8	0.0%	2.1	10%	-8	-3	.
65	O=Cc1cn(CC(=O)NCC2CCCO2)c2ccccc12 (centres undefined)	2.2	1.3%	1.5	8%	24	13	-5.8%
66	CCN(C(=O)c1ccc(Br)o1)C1CCS(=O)(=O)C1 (centres undefined)	.	1.3%	1.6	.	?	-13	0.5%
